# Screens from PubChem BioAssay.
# RecA intein inh: inhibitors of M. tuberculosis RecA intein splicing; cell-free RecA intein splicing, fluorescence; 290,000 compounds, 0.75% hits; inhibition, %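 (about 9 µM by stock and volumes)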; in the data active = inhibition above about 30%; inconclusive = no clear call, values can overlap the other calls;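 note: 0% = vehicle wells and 100% = reference inhibitor control wells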
# Target sequence (P9WHJ3 whole entry, looked up): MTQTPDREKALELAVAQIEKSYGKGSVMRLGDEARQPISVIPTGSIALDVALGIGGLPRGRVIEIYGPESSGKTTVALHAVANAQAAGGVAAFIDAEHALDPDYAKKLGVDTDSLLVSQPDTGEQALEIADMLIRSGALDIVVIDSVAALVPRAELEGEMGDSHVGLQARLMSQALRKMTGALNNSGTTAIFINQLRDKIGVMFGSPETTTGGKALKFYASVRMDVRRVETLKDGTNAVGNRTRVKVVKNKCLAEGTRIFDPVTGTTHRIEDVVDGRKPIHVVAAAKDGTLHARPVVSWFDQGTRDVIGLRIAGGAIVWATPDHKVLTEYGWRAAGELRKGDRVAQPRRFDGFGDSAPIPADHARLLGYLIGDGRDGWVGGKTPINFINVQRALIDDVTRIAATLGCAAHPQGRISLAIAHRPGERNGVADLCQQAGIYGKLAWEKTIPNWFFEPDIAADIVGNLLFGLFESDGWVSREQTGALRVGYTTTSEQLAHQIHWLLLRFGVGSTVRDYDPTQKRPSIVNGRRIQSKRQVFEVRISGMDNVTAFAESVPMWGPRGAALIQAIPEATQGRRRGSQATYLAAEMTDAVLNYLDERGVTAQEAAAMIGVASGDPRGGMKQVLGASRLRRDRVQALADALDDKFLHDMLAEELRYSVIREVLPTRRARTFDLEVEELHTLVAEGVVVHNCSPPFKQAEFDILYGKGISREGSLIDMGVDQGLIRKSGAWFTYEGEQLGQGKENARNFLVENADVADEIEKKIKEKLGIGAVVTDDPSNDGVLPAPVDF
# Arbovirus inh: arbovirus infection inhibition; arbovirus infection cell-based antiviral screen; inhibition, % at 10 µM; 200,000 compounds, 0.37% hits; AID 1251;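 active = inhibition from about 30%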;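 note: bluetongue infection of BSR cells; cell survival read as ATP light after 72 h; 0% = infected wells without compound and 100% = uninfected wells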
# Mtb betalactam: beta-lactam sensitization of Mtb H37Rv | M. tuberculosis H37Rv growth with meropenem, percent inhibition; hits of this screen are not shown here | inhibition, % at 25 µM | 330,000 compounds, 0.27% hits | AID 434955;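 active = about 74% or more and at least 40 points above the plate without the antibiotic, then above 30% in a dose series; inconclusive = first-round hits that could not be retested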;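 note: growth measured after seven days incubation then overnight dye step; 0% = bacteria only wells and 100% = bacteria with antibiotic; twin plates without the antibiotic show which effects depend on it; some results filed as inactive read as strong as hits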
# YopH inh: inhibitors of Yersinia enterocolitica YopH tyrosine phosphatase; fluorescence Ex485/Em525; 140,000 compounds, 0.16% hits; inhibition, %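 (about 10 µM by stock and volumes)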; AID 898;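 active = inhibition of 50% or more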;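 note: controls were vehicle for no effect and minimum signal wells for full effect; inactives centre near -20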
# Mtb growth: M. tuberculosis H37Rv growth inhibitors, H37Rv strain (AID 1626) | 220,000 compounds, 0.95% hits | inhibition, % at 10 µM, or IC50 in µM where a hit was titrated | M. tuberculosis H37Rv growth inhibition; higher % means a stronger effect;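 active = confirmed in a dose series; inconclusive = inhibition above 80% but not taken into the dose series; inactive = below 80% or under 30% at every dose of the series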;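 note: bacteria incubated seven days before Alamar blue readout; 0% = bacteria only wells and 100% = bacteria with antibiotic wells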
# Arbovirus inh repeat: recorded beside Arbovirus inh, whose call it bears; inhibition, %; measured here: 10K subset replicate screen; many hits read low in the repeat;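 first of two repeat runs on a subset; 0% = infected and 100% = uninfected wells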
# * marks the source's active call; other numbers are inactive results; u = inconclusive; x = not tested or not shown; & = joins results of further samples. An excerpt; rates above refer to the full screens.
SMILES,RecA intein inh,Arbovirus inh,Mtb betalactam,YopH inh,Mtb growth,others
CCCCc1ccc(-c2nc(NC(=O)C3C4CCC(O4)C3C(=O)O)sc2C)cc1 (stereo not drawn),4.6,-14.3,2.2,-47.7,2.3%,
CCCCCOC(=O)Cc1c(O)c2ccccc2n(C)c1=O,x,5.2,-10.3,-37.8,0.9%,
O=C1[C@H](CC[C@H](O)c2ccc(F)cc2)[C@@H](c2ccc(O)cc2)N1c1ccc(F)cc1,9.2,-5.1,-4.8,x,4.4%&7.3%,
CCN(/N=C/C=C/c1ccccc1)c1cc(=O)n(C)c(=O)[nH]1,1.7,-47.9,6.8,-13.7,2.7%,
Cc1ccc(C(=O)Nc2ccc3c(c2)C(=O)N(CC2CCCO2)C3=O)cc1 (stereo not drawn),-4.8,x,-8.4,x,x,
COc1ccc(Cl)cc1NC(=O)COc1cccc(-n2cnnn2)c1,-1.6,-8.2,-4.5,-33.6,-5.8%,
COc1ccc([N+](=O)[O-])c(OC)c1C(=O)NC(=O)Nc1c(C)cccc1C,-2.2,x,-4.5,x,x,
COCCNC(=O)CSc1nc2ccccc2c(=O)n1-c1cccc(OC)c1,0.7,-3.5,-4.3,-35.3,-6.7%,
CC(NC(=O)c1ccccc1)c1ccc(F)cc1 (stereo not drawn),2.2,8.5,7.0,-21.6,9.0%,
CN(C)CCCn1c2c(c(SCC(=O)Nc3ccc4c(c3)OCCO4)nc1=O)CCC2,-1.3,x,-16.1,x,x,
CCn1c(=O)c2ccccc2n(CC(=O)N2CCCc3ccccc32)c1=O,-6.1,x,-3.1,x,x,
NC(=O)c1ncc(C(F)(F)F)cc1Oc1ccc(F)cc1,1.7,4.3,7.7,-35.0,-7.8%,
COc1ccccc1NC(=O)Cc1csc(NC(=S)Nc2ccccc2)n1,7.9,4.5,15.9,-0.1,-0.8%,
Cc1ccc(-c2nn(-c3cc(Cl)ccc3[N+](=O)[O-])c(=O)c3ccccc23)cc1C,x,-4.2,12.6,-16.0,17.8%,
Nc1c(S(=O)(=O)c2ccccc2)c2nc3ccccc3nc2n1C1CC1,1.4,16.4,-7.8,x,-1.9%,
COc1cc(Cl)c(C)cc1NC(=O)CSc1nnc(-c2ccco2)n1CC(C)C,14.3,-30.7,-3.0,-38.0,-0.6%,
CC(=O)N/C(=C\c1ccccc1)C(=O)OCC(=O)c1ccc(F)cc1,0.3,x,0.8,x,x,
O=C(/C=C1\NC2(CCCC2)Cc2ccccc21)N1CCOCC1,-0.2,3.2,-10.1,-37.4,3.7%,
Cc1ccc(Sc2ncccc2C(=O)N(C)Cc2cccs2)c(C)c1,4.0,x,2.0,x,x,
CCOc1ccc(/C=C/C(=O)c2ccccc2)cc1,2.7,x,27.1,x,8.4%,
O=C(COc1cccc2cccnc12)Nc1ccccc1,-1.8,11.2,1.6,x,-1.3%,
Cc1ccc(-c2nnc(SCC(=O)OC(C)C)n2N)cc1,1.9,10.3,66.4,13.4,1.1%,
O=C(COc1ccccc1)NNC(=O)COc1ccc([N+](=O)[O-])cc1,0.2,-3.6,-1.6,x,-6.5%,
CN(Cc1ccccc1)CC1CCCN(CCc2ccccc2F)C1 (stereo not drawn),-1.5,x,-4.3,x,x,
CCN(c1cccc(C)c1)S(=O)(=O)c1cccc2nsnc12,4.7,-2.8,-4.3,-26.4,x,Arbovirus inh repeat=-3.6
CN(C1=C(NC(=O)c2ccc(Cl)cc2)C(=O)c2ccccc2C1=O)c1ccccc1,43.0*,-35.2,26.8,-7.3,64.8%,
Cc1ccc(S(=O)(=O)NCCC(=O)Nc2ccc(Cl)c(Cl)c2)cc1,-0.5,7.2,68.9,8.0,73.8%,
COc1ccc(-c2cc3c(=O)n(CC(=O)NCc4ccc(Cl)cc4)ncn3n2)cc1,-0.5,x,5.7,x,x,
Cc1ccc(C(=O)N2CCC(C(=O)NC3CCCCCC3)CC2)cc1,-1.4,x,5.2,x,x,
O=C(CNC(=O)C1CCCCC1)Nc1cc(Cl)ccc1Cl,0.2,4.4,5.0,-28.7,8.9%,
O=c1nc(Nc2ccccc2)sc2ccc([N+](=O)[O-])cc12,0.0,-1.0,-1.2,-32.5,3.1%,
O=C(COC(=O)c1ccc2c(c1)S(=O)(=O)N=C1CCCCCN12)NCc1cccs1,-0.1,x,-1.6,x,4.2%,
Cc1ccccc1Nc1nc(N)nc(CN2CCN(Cc3ccc4c(c3)OCO4)CC2)n1,-0.7,3.1,-13.8,x,-1.0%,
CCCCCCc1ccc(N2C[C@H](CCCCC)[C@@H](CC(=O)NCc3ccccc3)C2=O)cc1,-1.9,x,5.5,x,x,
Cc1ccc2c(Cl)c(C(=O)NCC(c3ccco3)N3CCCC3)sc2c1 (stereo not drawn),-1.5,x,88.9,x,x,
CCCOc1ccc(-c2nnn(CC(=O)N3CCC(C)CC3)n2)cc1,-1.3,19.5,10.1,7.2,-5.1%,
CCOC(=O)c1c(-c2ccco2)csc1NC(=O)CSc1nnc(N)s1,-2.3,-5.6,6.9,-23.9,-7.8%,
CC(=O)c1ccc(N2CCN(C(=O)Cn3cnc(S(=O)(=O)N4CCCCC4)c3)CC2)cc1,-2.3,x,1.1,x,x,
O=C(CNCc1cccs1)Nc1cc(S(=O)(=O)N2CCCC2)ccc1Cl,2.9,x,-9.1,x,3.8%,
COc1ccc(NC(=O)CCN2CCCC(C)C2)cc1 (stereo not drawn),x,0.9,-2.3,-36.8,6.2%,
O=C(O)c1cccc(S(=O)(=O)Nc2cccc3ccccc23)c1,-0.3,x,3.7,x,x,
CCC(C)NC(=O)CNC(=S)N(CCCN1CCOCC1)Cc1cccs1 (stereo not drawn),-7.8,-1.0,0.2,-19.4,2.9%,
CCn1ncc(/C=C/C(=O)NCc2cnn(C)c2C)c1C,-3.0,0.1,-5.2,-35.8,-0.6%,
COc1cccc(C2C(C(C)=O)=C(O)C(=O)N2CCc2c[nH]c3ccccc23)c1 (stereo not drawn),3.6,-0.7,3.3,-10.8,9.4%,
CNC(=O)c1ccc(OC2CSC2)cc1,-2.7,9.1,-3.8,-11.4,-0.3%,
CC(C)[C@H](NS(=O)(=O)c1ccccc1)C(=O)OCC(=O)NC(=O)c1cccn1C,-1.7,5.8,-6.3,-25.8,-4.2%,
COc1ccc2[nH]cc(C(=O)CN3CCCC(C)C3)c2c1 (stereo not drawn),-0.9,1.7,-2.3,-35.5,-2.9%,
CCOc1ccc(CN2CCN(Cc3cc4ccccc4o3)CC2CCO)cc1 (stereo not drawn),-0.7,x,-7.8,x,x,
CC(=O)Nc1sc(C)c(C)c1C(=O)OCC(=O)N(CC(C)C)c1c(N)n(Cc2ccccc2)c(=O)[nH]c1=O,-2.6,x,-5.8,x,x,
O=C(Nc1c(-c2ccccc2)nc2ccccn12)c1ccccc1,0.1,x,1.0,x,x,

# (continued)
SMILES,RecA intein inh,Arbovirus inh,Mtb betalactam,YopH inh,Mtb growth,others
Cn1cccc1C(=O)NC(=O)COC(=O)C12CC3CC(CC(O)(C3)C1)C2,-1.6,-3.4,-8.0,-21.0,2.7%,
O=C(CC(=O)c1ccccc1)Nc1ccccc1,0.1,x,-0.6,x,x,
O=C(NC(=S)NCc1ccccc1)c1cccnc1,0.4,4.6,-1.1,x,1.2%,
CC(=O)NCCC(=O)Nc1sc2c(c1-c1nc3ccccc3[nH]1)CCCC2,-3.0,-4.5,-7.4,-16.9,-4.2%,
Cc1coc2cc3oc(=O)ccc3cc12,-2.6,x,-4.0,x,x,
CCN(CC(=O)NCc1cccs1)C(=O)c1ccccc1F,0.1,2.7,-0.3,x,-6.8%,
O=C(OC(C(=O)c1c[nH]c2ccccc12)c1ccccc1)c1cnccn1 (stereo not drawn),-3.8,x,-6.2,x,x,
CCC1CCCCN1C(=S)NC(=O)c1ccc([N+](=O)[O-])cc1 (stereo not drawn),2.7,-3.1,96.5,-31.0,u,
CC(C)C[C@@H](C(=O)NCC1CCCO1)N1C(=O)N2CCc3c([nH]c4ccccc34)[C@@]2(C)C1=O (stereo partly drawn),0.1,x,-3.4,x,x,
Cc1cc(Br)ccc1NC(=O)C1CSC2(C)CCC(=O)N12 (stereo not drawn),-0.3,x,-9.8,x,x,
NC(=O)C1CCN(CC(=O)Nc2ccccc2N2CCOCC2)CC1,-6.0,x,-0.4,x,4.5%,
COc1ccc(C(C(=O)NC2CCCC2)N(CCO)C(=O)Cn2nnc(-c3ccc(C)o3)n2)cc1 (stereo not drawn),0.5,x,-5.8,x,x,
O=C(Cn1c(-c2cncs2)nc2ccccc21)NC1CCCC1,-2.0,2.2,-1.4,-2.1,x,
CC#CC(=O)N1CCC(n2nccc2NC(=O)c2ccc3c(c2)OCO3)CC1,-3.7,x,0.4,x,x,
Cc1c(Cl)cccc1NC(=O)CCCN1C(=O)CCC1=O,-2.0,4.2,-8.3,-9.2,x,
CC(=O)Nc1ccc(S(=O)(=O)N2CCN(C(=O)c3ncoc3-c3cccc(C)c3)CC2)cc1,-3.0,x,5.6,x,x,
Cc1ccc(Cl)cc1NC(=O)NCc1cccnc1,-0.9,x,-0.8,x,x,
COc1ccc(/C=N\NC(=O)c2ccccc2OC)cc1COc1ccccc1C,-2.6,x,-6.9,x,x,
CCOCC(=O)Nc1cc(Cl)c(OC)cc1OC,2.1,-6.5,-10.9,x,0.8%,
COc1nc(-c2ccccc2)nnc1-c1ccccc1,0.4,1.1,x,x,4.9%,

# Arranged by SMILES length (highest first): 16 of the compounds above
SMILES,RecA intein inh,Arbovirus inh,Mtb betalactam,YopH inh,Mtb growth,others
CC(C)C[C@@H](C(=O)NCC1CCCO1)N1C(=O)N2CCc3c([nH]c4ccccc34)[C@@]2(C)C1=O (stereo partly drawn),0.1,x,-3.4,x,x,
COc1ccc(C(C(=O)NC2CCCC2)N(CCO)C(=O)Cn2nnc(-c3ccc(C)o3)n2)cc1 (stereo not drawn),0.5,x,-5.8,x,x,
Cn1cccc1C(=O)NC(=O)COC(=O)C12CC3CC(CC(O)(C3)C1)C2,-1.6,-3.4,-8.0,-21.0,2.7%,
CC(=O)NCCC(=O)Nc1sc2c(c1-c1nc3ccccc3[nH]1)CCCC2,-3.0,-4.5,-7.4,-16.9,-4.2%,
O=C(OC(C(=O)c1c[nH]c2ccccc12)c1ccccc1)c1cnccn1 (stereo not drawn),-3.8,x,-6.2,x,x,
COc1ccc(/C=N\NC(=O)c2ccccc2OC)cc1COc1ccccc1C,-2.6,x,-6.9,x,x,
CCC1CCCCN1C(=S)NC(=O)c1ccc([N+](=O)[O-])cc1 (stereo not drawn),2.7,-3.1,96.5,-31.0,u,
NC(=O)C1CCN(CC(=O)Nc2ccccc2N2CCOCC2)CC1,-6.0,x,-0.4,x,4.5%,
O=C(Nc1c(-c2ccccc2)nc2ccccn12)c1ccccc1,0.1,x,1.0,x,x,
O=C(Cn1c(-c2cncs2)nc2ccccc21)NC1CCCC1,-2.0,2.2,-1.4,-2.1,x,
Cc1c(Cl)cccc1NC(=O)CCCN1C(=O)CCC1=O,-2.0,4.2,-8.3,-9.2,x,
CCN(CC(=O)NCc1cccs1)C(=O)c1ccccc1F,0.1,2.7,-0.3,x,-6.8%,
COc1nc(-c2ccccc2)nnc1-c1ccccc1,0.4,1.1,x,x,4.9%,
O=C(NC(=S)NCc1ccccc1)c1cccnc1,0.4,4.6,-1.1,x,1.2%,
O=C(CC(=O)c1ccccc1)Nc1ccccc1,0.1,x,-0.6,x,x,
Cc1coc2cc3oc(=O)ccc3cc12,-2.6,x,-4.0,x,x,

# Later entries.
SMILES,RecA intein inh,Arbovirus inh,Mtb betalactam,YopH inh,Mtb growth,others
CC(C)[C@H](NC(=O)c1ccco1)C(=O)N(C)Cc1c(F)cccc1Cl,1.5,x,2.5,x,x,
C#CC(=O)N(c1ccc(OC)c(OC)c1)C(C(=O)NC1CCCC1)c1cccs1 (stereo not drawn),-7.6,-46.0,86.1,-40.6,7.4%,
C/C(=N\N1CCCCCC1)c1c(O)n(C2CCCCC2)c(=O)[nH]c1=O,11.0,x,-5.5,x,8.5%,
CCOC(=O)C1CCN(S(=O)(=O)c2c[nH]c(=O)[nH]c2=O)CC1,-0.7,x,-0.7,x,x,
